Source: PubChem (several laboratories)
Bead autofluor: counter-screen for toxin protease inhibitors: compound fluorescence; compound autofluorescence counterscreen, microsphere flow cytometry; active compounds read high; fluorescence intensity (test concentration not listed); hit rate 3.1% among 360,000;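 active = at least 3 SD above the mean of all compounds, about 16000 in these data; inconclusive = too few beads counted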;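 note: 100 nL of 1 mM stock went into each well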
BJeLR viability: kills HRASV12-expressing BJeLR cells | AID 1554 | hit rate 0.17% among 300,000 | BJeLR (HRASV12) viability, CellTiter-Glo ATP luminescence, 48 h; reference of the scale not given here | inhibition, % (no concentration beside the values);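 active = replicate mean above 50%; inconclusive = above 50% but judged a plate artefact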;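 note: 50 nL library stock added to about 25 µL; numbers are from one replicate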
ugtP null kill: growth inhibition of S. aureus ugtP deletion strain; S. aureus RN4220 ugtP deletion, OD600 growth, 16 h; some inactives read as strong as hits; growth inhibition, % (no concentration beside the values); hit rate 0.54% among 330,000; AID 1259309;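 active = z-score under -3 and OD600 up to 0.15 on both plates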;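 note: plate controls were untreated wells for no effect and antibiotic for full effect; wells of about 80 µL received 100 nL stock; the first replicate is given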
Mtb hypoxia inh: reduces hypoxia-regulated biosensor signal in M. tuberculosis; AID 1159583; fluorescence inhibition, % (concentration not given with the values); hit rate 0.1% among 300,000; M. tuberculosis hypoxia-regulated fluorescent reporter, fluorescence;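 active = 35 to 45% if threefold the growth effect, above 45% if 1.5-fold the growth effect; inactive = the rest, general growth blockers included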;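 note: wells of about 50 µL received 100 nL stock; 0% = vehicle wells and 100% = reference inhibitor wells; whole bacteria with a GFP reporter of the hypoxia response; strong numbers were not always called active; many hits fall short of the cut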
Sa RN4220 lethal: S. aureus RN4220 growth inhibition; OD600, 16 h; inhibition, % (concentration not given with the values); hit rate 0.33% among 330,000; AID 1259311;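 active = z-score of -3 or lower and OD600 up to 0.18 on both plates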;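 note: plate controls were untreated cells for no effect and reference antibiotic for full effect; stock transfer was 100 nL into about 80 µL; one replicate is shown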
PrP UTR inh: inhibition of PrP 5' UTR reporter expression; cell-based PrP 5' UTR mRNA reporter, plate reader; inhibition, % (no concentration beside the values); hit rate 0.35% among 340,000;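 active = every replicate at 50% or more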;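 note: 0 = median of the neutral control wells; tested in H4 reporter cells; numbers are from one replicate; inactives centre near -14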
Mtb hypoxia inh growth: also measured in Mtb hypoxia inh; calls as there; growth inhibition, %; measured here: M. tuberculosis growth (absorbance);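 0% = vehicle and 100% = reference antibiotic; read after six days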
The depositor's hits bear a star; u = inconclusive; x = not tested or not shown; & = joins results of further samples.

SMILES	Bead autofluor	BJeLR viability	ugtP null kill	Mtb hypoxia inh	Mtb hypoxia inh growth	Sa RN4220 lethal	PrP UTR inh
O=C(c1ccc(N2CCCCC2)c([N+](=O)[O-])c1)N(c1ccccn1)c1ccccn1	3626	-8	21	6	-1	6.1	-14
O=C(CSc1nc2ccccc2c(=O)n1-c1ccccc1)N1CCc2ccccc2C1	7693	-7	9	8	7	-0.7	-11
CCOc1ccc(CC(=O)N2N=C(C)CC2(O)C(F)(F)F)cc1 (configuration not stated)	2121	-7	7	x	x	5.0	-36
C/C(C=NN1CCN(c2ccccc2)CC1)=C/c1ccco1	x	x	22	5	10	0.5	x
CCOC(=O)N1C2c3ccccc3C(c3ccccc32)N1C(=O)OCC	3585	x	3	6	5	5.3	-40
Cc1cccc(C(=O)N(NC(=O)Oc2ccccc2)C(C)(C)C)c1	4066	-6	-2	6	-4	5.5	0
CCOC(=O)C1CCCCN1C(=O)C(=Cc1ccc(OC)cc1)c1ccc(OC)c(OC)c1 (configuration not stated)	x	x	4	7	10	4.3	x
COc1cccc(NC(=O)Nc2cccs2)c1	3377	8	-3	6	1	4.0	-34
CC(=O)Nc1ccc(C#Cc2ccc(NC(C)=O)cc2)cc1	8141	32	-12	-5	0	-5.5	-18
Cc1n[nH]c(=O)c2c(NC(=O)CSc3ccccc3F)oc(C)c12	4376	8	5	6	5	0.5	-50
Cc1cc(C)nc(SCc2cc(=O)c(OC(=O)c3ccc(S(=O)(=O)N4CCCC4)cc3)co2)n1	2418	7	10	13	-1	2.5	-11
CCCc1nnc(NC(=O)CCC(=O)N2CCCCC2CC)s1 (configuration not stated)	4194	12	1	14	13	3.0	-26
CCOc1ccccc1CN1C(=O)C2(OCCO2)c2ccccc21	3606	-7	16	6	9	1.2	-13
COc1ccccc1CNc1ccc([N+](=O)[O-])cc1C	4891	-5	7	9	-4	0.0	-9
COc1ccc(S(=O)(=O)N2CCc3ccccc32)cc1C(=O)OCc1nnc(-c2ccccc2)o1	3437	-3	0	x	x	0.6	-9
CN1CCN(c2c(C=NO)c3ccccc3n2C)CC1	x	x	11	-3	-4	1.8	x
COCCn1c(CN2CC(C)CC(C)C2)nc2c1c(=O)n(C)c(=O)n2C (configuration not stated)	5730	-3	5	-2	2	18	-18
O=C(NN1C(=O)NC2(CCCCC2)C1=O)c1ccc(Cl)s1	3905	x	-5	-8	-6	-1.1	-17
CCN(CC)CCCNC(=O)CCc1c(C)n(CC)c2cc(-c3ccccc3OC)nn2c1=O	4247	-3	18	2	11	-3.0	-24
O=C(COc1ccc(C(=O)c2ccccc2)cc1)NCC(=O)Nc1ccccc1Br	2179	1	-5	-8	5	-6.3	-48
CCOc1ccc(-n2c(=O)c3sccc3n(CC(=O)NCCc3ccc(OC)c(OC)c3)c2=O)cc1	4112	16	3	-3	1	3.7	-17
COCCSc1nnc(NC(=O)Cc2ccc(OC)c(OC)c2)s1	4659	6	5	7	5	-3.2	-8
CCOc1ccc(N(CC(=O)N2CCN(c3ccccc3)CC2)S(=O)(=O)c2c(C)noc2C)cc1	5644	6	7	x	x	1.7	-13
N#Cc1ccc(S(=O)(=O)N2CCN(c3ncccn3)CC2)cc1	x	4	9	9	13	1.2	-23
Cc1ccccc1NC(=O)CC(=O)Nc1ccccc1C	3472	8	20	-1	-8	2.2	-20
Cc1cc(Br)cc2c1N(C)C(=O)C2(c1ccc(O)cc1)c1ccc(O)cc1	x	7	-14	-3	-1	-18	x
COc1cc(C(=O)Oc2ccc(/C=N/NC(=O)c3ccncc3)cc2)cc(OC)c1OC	5260	3	x	x	x	x	-18
Cc1ccc(C)c(N2CCN(CCCNC(=O)Cn3c(=O)c4cccn4c4cccnc43)CC2)c1	5968	-4	7	5	6	2.5	-1
CCc1ccn2cc(-c3ccc4c(c3)OCO4)nc2c1	6373	15	5	9	7	0.6	74*
CC1CN(C(=O)COC(=O)c2cc(S(N)(=O)=O)c(Cl)cc2Cl)CC(C)O1 (configuration not stated)	5407	-3	x	x	x	x	-17
O=C(COC(=O)Cc1n[nH]c(=O)c2ccccc12)NNC(=O)c1ccc(Br)cc1	3812	x	3	1	-4	2.9	-16
CCC1=Nc2cc(C(=O)NCc3ccco3)ccc2Sc2ccccc21	2143	24	-7	8	-1	5.4	-29
CCOC(=O)c1ccc(NC(=O)CNS(=O)(=O)c2ccccc2)cc1	4972	10	5	x	x	1.5	-9
Cc1ccc(NC(=O)CCOc2ccccc2)cc1	4095	2	9	10	4	0.7	-48
CCc1ccc(N=C2NC(=O)CS2)cc1	3221	-3	13	5	8	1.8	-12
COc1ccc(CCNC(=O)CSc2nc(=O)n3cc(C)ccc3n2)cc1OC	u	4	10	4	0	7.0	-17
CC(=O)O[C@H]1C[C@@]2(C)[C@@H](C[C@@H](O)[C@H]3[C@@]4(C)CC[C@@H](O)[C@@H](C)[C@@H]4CC[C@@]32C)/C1=C(\CCC=C(C)C)C(=O)O	6028&5046	-6	x	x	x	x	-5&-9
CC(C)c1cc(C(=O)O)c2cnn(C(C)C)c2n1	4517	-5	10	0	-10	2.5	-1
CCOC(=O)Cn1cc(-c2ccccc2)nn1	3442	-11	-2	7	7	9.4	-11
Cc1ccccc1C(=O)Nc1cccc(C(=O)N/N=C/c2ccccn2)c1	3278	-3	x	x	x	x	-1
N=C1/C(=C/c2ccc(-c3cccc(C(=O)O)c3)o2)C(=O)N=C2SC(CC(=O)N3CCOCC3)=NN12	4570	3	0	-2	-6	-4.8	-19
CCOC(=O)c1c(NC(=O)CC2SC(N)=NC2=O)sc2c1CCCC2 (configuration not stated)	13637	3	11	-9	-9	-1.9	-29
Cc1ccc(-c2nnc(SCC(=O)O)n2N)cc1	22439*	-1	-2	-6	4	2.2	-12
COc1cc(C)c(CN2CCC(Cc3ccccc3)CC2)cc1C	3239	-1	3	-8	-3	0.2	-18
COCCn1c(COc2ccc(C)cc2)nc2ccccc21	2868	-1	3	-2	7	-1.0	-44
Cc1cc2n(c(=O)c1C#N)CCCN2c1ccccc1	16496*	-1	9	3	-1	2.7	-6
COc1ccc(NC(=O)CN2C(=O)NC(c3ccccc3)(c3ccccc3)C2=O)cc1OC	4189	10	1	-5	-1	-1.1	-9
O=C(N/N=C/c1c(O)n(CCC2=CCCCC2)c(=S)[nH]c1=O)c1ccccc1	2090	-16	38	3	3	12	-15
C/C=C(/C)C(=O)OC1Cc2c(ccc3ccc(=O)oc23)OC1(C)C (configuration not stated)	5085	-3	8	x	x	6.2	20
CCC(=O)OCCNc1cc(Sc2nccn2C)c2nonc2c1[N+](=O)[O-]	2480	4	20	23	13	46	-8
CCCc1ccc2oc(C(=O)NCCCN3CCOCC3)c(C)c2c1	6289	0	1	-1	14	-0.5	-28
O=C(O)c1ccccc1CSc1nc2ccccc2[nH]1	4972	0	-1	8	17	4.7	-23
CCOC(=O)C1C(c2cccc(F)c2)NC(=S)NC1(O)C(F)(F)F (configuration not stated)	10151	1	1	3	-12	0.8	-28
Cc1noc(C)c1COc1ccccc1C(=O)N1CCN(S(=O)(=O)c2ccccc2F)CC1	5985	4	1	-1	10	4.3	-17
Cc1ccccc1OCCC(=O)OCC(=O)NCCc1ccc(S(N)(=O)=O)cc1	3040	x	3	-4	-4	-0.2	-11
S=C(NCc1ccco1)Nc1ccccc1Cl	3205	-3	-1	2	-4	3.9	0
COc1ccc(F)cc1S(=O)(=O)NCC(c1ccco1)N1CCc2ccccc2C1 (configuration not stated)	5347	7	19	7	13	8.5	-17
Cc1ccnc(N/C=C(/NC(=O)c2ccccc2)C(=O)N/N=C\c2ccc(F)cc2)n1	2900	-3	x	x	x	x	13
O=C(CSc1nnc(C2CC2)n1-c1ccccc1)N1CCNC1=O	3835	x	1	-3	11	0.3	-9
COc1ccc(OC)c(Cc2nnc(CCC(=O)NC3C4CC5CC(C4)CC3C5)o2)c1 (configuration not stated)	2403	-3	-14	4	-2	-3.4	-6
Additional records:
SMILES	Bead autofluor	BJeLR viability	ugtP null kill	Mtb hypoxia inh	Mtb hypoxia inh growth	Sa RN4220 lethal	PrP UTR inh
CCCC(=O)Nc1sc(C)c(-c2ccc(OC)cc2)c1C#N	2230	-9	-1	6	9	10	-16
NNC(=S)Nc1cccc(Cl)c1	6034	3	0	1	6	-1.7	-27
Cn1cnc(C(=O)NCc2ccccc2)c1C(=O)NCc1ccccc1	3970	x	1	-3	2	6.4	-23
CCn1c(SCC(=O)N/N=C/c2ccc(C)o2)nnc1-c1ccc(C)cc1	2166	-7	x	x	x	x	-22
CCOC(=O)/C(C#N)=C1/SC(CC)C(=O)N1c1ccc(Br)cc1 (configuration not stated)	5826	4	1	-6	4	2.4	-17
CCN(CC)c1ccc(/C=N/N2C(=O)c3ccccc3C2=O)c(O)c1	10161	8	x	x	x	x	-26
O=C(Cn1c(=O)n(CC2CS2)c2ccccc21)N1CCCCCC1 (configuration not stated)	6008	3	6	4	3	1.6	-7
CC1CCN(C(c2nnnn2CCc2ccccc2)C(C)C)CC1 (configuration not stated)	3559	x	4	18	9	15	-16
O=C1C(Cl)=C(N2CCOCC2)C(=O)N1c1ccccc1Cl	8115	-28	3	-3	-2	-2.2	-24
CCOc1ccc(Br)cc1S(=O)(=O)Nc1cccc(S(=O)(=O)N(C)c2ccccc2)c1	2211	-4	-1	3	6	5.2	-17
O=C(Cn1nnc(-c2ccncc2)n1)N(C1CCCCC1)C1CCCCC1	5137	x	-8	x	x	-9.5	-13
CCCCn1c(=O)[nH]c(=O)c2c1nc(-c1ccc(OC)c(Br)c1)n2CC(C)C	4989	-14	-1	-2	3	4.7	0
O=C(NCc1ccncc1)c1ccc2nc(Cc3ccccc3F)oc2c1	5710	-8	-6	-6	6	-2.0	-18
CCOC(=O)Cn1nc(/C=C/c2ccc(C(C)C)cc2)ccc1=O	2154	-2	22	x	x	8.2	-1
CC1(C)C(=O)OC(c2ccc([N+](=O)[O-])cc2)C(C)(C)C1=O (configuration not stated)	3733	-16	2	10	7	2.2	-14
CC(C)C1Cc2c(C#N)c(N)n(C)c(=S)c2CO1 (configuration not stated)	5087	-10	-1	-8	-2	1.7	-3
COc1ccccc1CNCC(=O)Nc1ccc(C#N)cc1	3473	-10	4	7	5	1.8	-7
O=C(/C=C/C(=O)N1CCc2ccccc2C1)N1CCc2ccccc2C1	5856	-1	8	5	7	0.9	-31
O=C1CC(C(=O)Nc2cccc(Cl)c2)n2ncnc2N1 (configuration not stated)	4324	7	1	4	3	1.4	-25
CCOc1ccc(NC(=O)CN(C)C(=O)C2COc3ccccc3O2)cc1OCC (configuration not stated)	3466	x	6	18	17	4.0	-6

Three compounds already listed, sorted by SMILES length, lowest first.
SMILES	Bead autofluor	BJeLR viability	ugtP null kill	Mtb hypoxia inh	Mtb hypoxia inh growth	Sa RN4220 lethal	PrP UTR inh
O=C1CC(C(=O)Nc2cccc(Cl)c2)n2ncnc2N1 (configuration not stated)	4324	7	1	4	3	1.4	-25
O=C1C(Cl)=C(N2CCOCC2)C(=O)N1c1ccccc1Cl	8115	-28	3	-3	-2	-2.2	-24
CCn1c(SCC(=O)N/N=C/c2ccc(C)o2)nnc1-c1ccc(C)cc1	2166	-7	x	x	x	x	-22

The main list resumes, starting two compounds before the break.
SMILES	Bead autofluor	BJeLR viability	ugtP null kill	Mtb hypoxia inh	Mtb hypoxia inh growth	Sa RN4220 lethal	PrP UTR inh
O=C1CC(C(=O)Nc2cccc(Cl)c2)n2ncnc2N1 (configuration not stated)	4324	7	1	4	3	1.4	-25
CCOc1ccc(NC(=O)CN(C)C(=O)C2COc3ccccc3O2)cc1OCC (configuration not stated)	3466	x	6	18	17	4.0	-6
Cc1ccc(S(=O)(=O)N2CCN(CC(=O)NN=Cc3ccc(Cl)c([N+](=O)[O-])c3)CC2)cc1	x	x	5	-2	6	3.7	x
CCn1c(CCNC(=O)c2cccs2)nnc1SCC(=O)Nc1ccc(Cl)cc1	22204*	11	-3	3	4	-2.3	-8
CCC(=O)NC(C)c1cc(Cl)c2cccnc2c1O (configuration not stated)	3631	x	13	5	-6	-5.2	-22
O=C(NCCc1nnc2ccc(NCC3CCCO3)nn12)c1ccccc1 (configuration not stated)	3900	6	4	4	-4	3.6	-6
CCn1c(SCC(=O)NN=C/C(C)=C\c2ccco2)nnc1-c1ccccc1	x	x	-3	-7	5	-1.8	x
CCOC(=O)c1ccc(N2C(=O)CC(C(=O)OC)=C2C)cc1	3999	-2	4	x	x	4.1	-19
CC(C)c1cccc(C(C)C)c1NC(=S)Nc1cccc(Cl)c1	4132	-1	-1	-12	1	-1.5	-21
